AF4-AF9 inh: inhibitors of human MLL-AF4/AF9 interaction. P42568. AlphaScreen, biotin-AF4 peptide binding to FLAG-AF9. inhibition, % at 10 µM. 0.47% of 350,000 active;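 active means every replicate reaching a set inhibition limit, whatever the replicate mean, cut at about 25% in these data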;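 further: 0% = plate neutral control median and 100% = total signal loss; the record names both 10 and 1 µM as test concentration; the first replicate is given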
Target sequence (P42568 whole entry, looked up): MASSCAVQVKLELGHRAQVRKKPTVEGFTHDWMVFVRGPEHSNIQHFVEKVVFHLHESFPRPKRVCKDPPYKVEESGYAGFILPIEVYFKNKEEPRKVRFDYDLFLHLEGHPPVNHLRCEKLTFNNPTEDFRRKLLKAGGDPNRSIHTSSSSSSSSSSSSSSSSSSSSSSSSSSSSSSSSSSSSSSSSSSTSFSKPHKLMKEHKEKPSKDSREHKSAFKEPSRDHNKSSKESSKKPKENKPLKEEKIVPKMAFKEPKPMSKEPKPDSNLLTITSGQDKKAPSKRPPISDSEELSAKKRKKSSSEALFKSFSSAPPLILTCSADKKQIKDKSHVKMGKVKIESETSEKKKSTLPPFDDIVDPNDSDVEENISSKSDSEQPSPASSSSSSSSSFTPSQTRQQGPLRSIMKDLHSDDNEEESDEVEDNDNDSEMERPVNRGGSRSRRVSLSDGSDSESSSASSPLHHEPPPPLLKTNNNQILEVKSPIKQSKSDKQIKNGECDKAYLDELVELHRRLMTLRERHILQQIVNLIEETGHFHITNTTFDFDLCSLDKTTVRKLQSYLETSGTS
A1 inh: inhibitors of the anti-apoptotic protein A1, read as caspase activation; 0.066% of 330,000 active; MEF A1-2A-BIM cells, Caspase-Glo 3/7 luminescence, 3 h; percent of clofoctol response, vehicle zero; caspase activation, % (no concentration beside the values);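 active means over half of replicate activation scores above 10%, or exactly half above 10 with the replicate mean above 10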;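 further: wells of about 30 µL received 50 nL stock; many hits fall short of the cut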
rRNA inh HTS: selective bacterial rRNA inhibition in E. coli; GFP signal change (wild-type ribosome), % (test concentration not listed); E. coli WT GFP vs humanized-ribosome RFP mutants, fluorescence, 24 h; hits give low values; DMSO median 0, no signal -100; 1.6% of 350,000 active;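 active means significant combined selectivity score with lowered wild-type GFP, culture density cut under 30%, mutant RFP and density less affected; inactive means any of these conditions unmet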; further: one replicate is shown; some compounds called inactive have numbers as strong as hits
rRNA inh HTS OD600: recorded beside rRNA inh HTS, whose call it bears; OD600 change, %; measured here: OD600 growth;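 optical density of the mix in the first replicate; 0 = DMSO median and -100 = no signal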
rRNA inh HTS RFP: also measured in rRNA inh HTS; calls as there; RFP signal change, %; measured here: RFP humanized mutant strains;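 first replicate; 0 = DMSO median and -100 = no signal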
* marks the source's active call; other numbers are inactive results; nt = not tested or not shown.

Second line of a record – AF4-AF9 inh | A1 inh | rRNA inh HTS | rRNA inh HTS OD600 | rRNA inh HTS RFP
> O=C(NCc1ccccc1)c1cc(C2CCCCN2C(=O)c2ccccc2)on1 (configuration not stated)
→ -0.6 | nt | nt | nt | nt
> O=C1CCCN1CCCNCCCn1cnc2c(OCc3ccccc3)ncnc21
→ -4.4 | nt | nt | nt | nt
> CCCNC(=O)Nc1ccc2c(c1)C(=O)N(C)C[C@H](OC)[C@@H](C)CN(C(=O)c1ccccc1F)[C@@H](C)CO2
→ 1.4 | nt | nt | nt | nt
> Cc1cc(C(=O)N2CCC(C)(C(=O)NS(=O)(=O)C3CC3)C2)n(C(C)(C)C)n1 (configuration not stated)
→ -15.1 | nt | nt | nt | nt
> COCCOC(=O)N1C(=O)[C@@]2(c3cc(C#CC4=CCCCC4)ccc31)[C@H](c1ccc(OCCO)cc1)N1[C@H](c3ccccc3)[C@H](c3ccccc3)OC(=O)[C@H]1[C@@H]2C(=O)N1CCc2cc(OC)c(OC)cc2C1
→ -2.3 | nt | nt | nt | nt
> C=CC[C@H](O)c1ccc(O)c(F)c1
→ -2.2 | nt | nt | nt | nt
> COc1cc(O)cc2cc3c(c(O)c12)C(=O)CC(C)(O)O3 (configuration not stated)
→ 3.1 | 0.2 | nt | nt | nt
> CCCC(=O)Nc1ncnc2c1ncn2[C@@H]1O[C@@H]2OP(=O)(O)OC[C@H]2[C@H]1OC(=O)CCC
→ -3.8 | 3.0 | nt | nt | nt
> O=C(O)c1cccnc1C(=O)O
→ -20.8 | -0.4 | nt | nt | nt
> COC(=O)C1=CO[C@@H](C)[C@H]2CN3CCc4c([nH]c5ccccc45)[C@@H]3C[C@H]12
→ 3.7 | 0.8 | nt | nt | nt
> O=C(CCCN1CCN(c2ccccn2)CC1)c1ccc(F)cc1
→ -2.5 | -0.5 | nt | nt | nt
> O=c1c(OC2OC(CO)C(O)C(O)C2OC2OC(CO)C(O)C(O)C2OC2OC(CO)C(O)C(O)C2O)c(-c2ccc(O)c(O)c2)oc2cc(O)cc(O)c12 (configuration not stated)
→ 0.1 | -0.3 | nt | nt | nt
> O=C(O)CNC(=O)C(CS)Cc1ccccc1 (configuration not stated)
→ -0.5 | 0.4 | nt | nt | nt
> CC(C)NC[C@H](O)c1ccc(O)c(O)c1
→ -4.4 | -0.4 | nt | nt | nt
> CC(C)NC(=O)N(C)C[C@H]1Oc2ncccc2C(=O)N(C)C[C@H]1C
→ nt | nt | 4.3 | 7.5 | -1.0

Reformatted: six of the compounds above.
SMILES	AF4-AF9 inh	A1 inh	rRNA inh HTS	rRNA inh HTS OD600	rRNA inh HTS RFP
COCCOC(=O)N1C(=O)[C@@]2(c3cc(C#CC4=CCCCC4)ccc31)[C@H](c1ccc(OCCO)cc1)N1[C@H](c3ccccc3)[C@H](c3ccccc3)OC(=O)[C@H]1[C@@H]2C(=O)N1CCc2cc(OC)c(OC)cc2C1	-2.3	nt	nt	nt	nt
C=CC[C@H](O)c1ccc(O)c(F)c1	-2.2	nt	nt	nt	nt
COc1cc(O)cc2cc3c(c(O)c12)C(=O)CC(C)(O)O3 (configuration not stated)	3.1	0.2	nt	nt	nt
CCCC(=O)Nc1ncnc2c1ncn2[C@@H]1O[C@@H]2OP(=O)(O)OC[C@H]2[C@H]1OC(=O)CCC	-3.8	3.0	nt	nt	nt
O=C(O)c1cccnc1C(=O)O	-20.8	-0.4	nt	nt	nt
COC(=O)C1=CO[C@@H](C)[C@H]2CN3CCc4c([nH]c5ccccc45)[C@@H]3C[C@H]12	3.7	0.8	nt	nt	nt

Other entries.
Second line of a record – AF4-AF9 inh | A1 inh | rRNA inh HTS | rRNA inh HTS OD600 | rRNA inh HTS RFP
> COC(=O)c1ccc(CN2CC(=O)N3[C@H](CO)[C@H](c4ccc(-c5ccccc5)cc4)[C@@H]3C2)cc1
→ nt | nt | -1.7 | 15.8 | 0.5
> C[C@H](CO)N1C[C@H](C)[C@@H](CN(C)Cc2ccncc2)OCCCC[C@H](C)Oc2ccc(NC(=O)Nc3ccc(F)cc3)cc2C1=O
→ nt | nt | 3.8 | -6.5 | 1.3
> c1ccc(Cc2cnc(N3CCN(Cc4cccc(-c5ccsc5)n4)CC3)nc2)cc1
→ nt | nt | -35.9* | -27.1* | -5.6*
> COc1cccc(S(=O)(=O)N2CC[C@@H]3[C@H](CO)Nc4ccc(-c5ccc(C#N)cc5)cc4[C@@H]32)c1
→ nt | nt | -2.2 | 8.6 | 4.0
> CO[C@H]1CN(C)C(=O)c2cc(NC(=O)C3CC3)ccc2OC[C@H](C)N(C(=O)c2ccccn2)C[C@H]1C
→ nt | nt | 0.2 | -1.2 | -0.7
> COc1ccc(NC(=O)Nc2cccc3c2O[C@@H](CN(C)C(=O)Nc2ccc(C(F)(F)F)cc2)[C@H](C)CN([C@H](C)CO)C3=O)cc1
→ nt | nt | -19.4 | -19.8 | -1.7
> Cc1ccccc1NC(=O)Nc1ccc2c(c1)C(=O)N(C)[C@H]1CC[C@@H](CC(=O)O)O[C@@H]1CO2
→ nt | nt | 3.9 | 8.6 | -0.9
> CC(CNC(=O)[C@@H](Cc1ccccc1)NC(=O)[C@H]1O[C@@H](n2cnc3c(=O)[nH]c(N)nc32)[C@H](O)[C@@H]1O)c1ccccc1 (some centres not stated)
→ nt | nt | 14.2 | 6.9 | 2.2
> O=C(N[C@H](C(=O)N1CCC[C@H]1C(=O)NCc1ccccc1)c1ccccc1)c1ccccc1
→ nt | nt | 0.7 | 1.7 | 7.0
> CCC(=O)N(C)C[C@H]1Oc2cc(C3=CCCCC3)ccc2S(=O)(=O)N([C@H](C)CO)C[C@@H]1C
→ nt | nt | -5.1 | 4.7 | -0.3
> CC(=O)NC[C@@H]1[C@@H](c2ccc(C3=CCCCC3)cc2)[C@@H](CO)N1C(=O)NC(C)C
→ nt | nt | -8.9 | -4.4 | 3.8
> COC(=O)C[C@H]1CC[C@@H]2[C@H](COc3ccc(NS(C)(=O)=O)cc3C(=O)N2C)O1
→ nt | nt | 4.9 | -0.6 | -1.4
> C[C@@H]1CCCCO[C@H](CN(C)S(=O)(=O)c2ccc(F)cc2)[C@@H](C)CN([C@H](C)CO)C(=O)c2cc(NC(=O)Nc3ccc(F)cc3)ccc2O1
→ nt | nt | 2.2 | 4.2 | 1.2
> COc1ccc(S(=O)(=O)Nc2ccc3c(c2)C(=O)N([C@H](C)CO)C[C@@H](C)[C@H](CN(C)S(=O)(=O)c2ccc(OC)cc2)OCCCC[C@H](C)O3)cc1
→ nt | nt | -2.0 | 3.1 | -2.1
> C[C@@H]1CN(C)C(=O)c2cccnc2O[C@@H]1CN(C)C
→ nt | nt | 0.7 | -2.5 | -2.5
> COc1cccc(-c2ccc(C3[C@@H]4CN(S(=O)(=O)c5cccc(Cl)c5)C[C@H]3N4)cc2)c1 (some centres not stated)
→ nt | nt | -61.2 | -71.9 | -12.1
> C[C@@H]1CN([C@@H](C)CO)C(=O)CCCn2cc(nn2)CO[C@@H]1CN(C)Cc1ccc2cccnc2c1
→ nt | nt | 1.3 | 2.2 | -1.1
> Cc1ccccc1NC(=O)N(C)[C@H]1C[C@H]2c3[nH]c4c(-c5ccc6c(c5)OCO6)cccc4c3CCN2C(=O)[C@H]1[C@H](C)O
→ nt | nt | 3.5 | -13.7 | 0.5
> CCC(=O)N1[C@H](CO)[C@@H](c2ccc(-c3ccccc3)cc2)[C@@H]1CN(C)C(C)=O
→ nt | nt | 1.9 | 6.2 | -2.4
> CCCNC(=O)C[C@H]1C[C@H]2c3cc(NS(=O)(=O)c4ccccc4)ccc3O[C@H]2[C@H](CO)O1
→ nt | nt | -2.6 | -16.1 | -2.6
> CO[C@H]1CN(C)C(=O)c2ccc(NC(=O)C3CC3)cc2OC[C@H](C)N(Cc2cncnc2)C[C@H]1C
→ nt | nt | 0.9 | 4.7 | -0.8
> COC(=O)N1C[C@H](OCc2ccc3c(c2)OCO3)[C@H]2C[C@@H]1c1ccccc1O2
→ nt | nt | -16.8 | -18.7 | -3.4
> C[C@H](CO)N1C[C@H](C)[C@H](CN(C)C(=O)Nc2ccc(C(F)(F)F)cc2)Oc2ccc(NC(=O)CCC(F)(F)F)cc2CC1=O
→ nt | nt | 0.2 | -1.6 | -0.9
> C[C@H]1CC=CCCNC(=O)[C@H](C)N(C)C(=O)c2ccccc2O1 (mixture of isomers)
→ nt | nt | 0.9 | 3.0 | -2.9
> COc1ccc(-c2ccc3c(c2)[C@@H]2[C@@H](CCN2C(=O)Cc2cccnc2)[C@H](CO)N3C)cc1
→ nt | nt | 1.4 | -8.4 | 4.4
> O=C(C[C@@H]1CC[C@@H]2[C@H](COC[C@H](O)CN2Cc2ccccc2F)O1)NC1CCC1
→ nt | nt | 5.1 | 4.8 | -3.6
> CO[C@@H]1CN(C)C(=O)c2ccc(NC(=O)C3CCOCC3)cc2OC[C@@H](C)N(Cc2nccs2)C[C@@H]1C
→ nt | nt | -0.1 | 2.7 | -0.8
> CC(C)NC(=O)N(C)C[C@@H]1Oc2ccc(NC(=O)Cn3cnnn3)cc2C(=O)N([C@@H](C)CO)C[C@H]1C
→ nt | nt | 6.9 | 12.6 | -1.5
> CN(C)C(=O)C[C@H]1CC[C@@H]2[C@H](COC[C@H](O)CN2C(=O)C2CCCC2)O1
→ nt | nt | 3.9 | 0.6 | 2.3
> C[C@@H]1CN([C@H](C)CO)C(=O)c2cc(NS(=O)(=O)c3ccccc3)ccc2O[C@@H]1CN(C)S(=O)(=O)c1ccc(Cl)cc1
→ nt | nt | -3.0 | -11.9 | 4.3

Overlap with the part before: five entries; new compounds follow.
Second line of a record – AF4-AF9 inh | A1 inh | rRNA inh HTS | rRNA inh HTS OD600 | rRNA inh HTS RFP
> O=C(C[C@@H]1CC[C@@H]2[C@H](COC[C@H](O)CN2Cc2ccccc2F)O1)NC1CCC1
→ nt | nt | 5.1 | 4.8 | -3.6
> CO[C@@H]1CN(C)C(=O)c2ccc(NC(=O)C3CCOCC3)cc2OC[C@@H](C)N(Cc2nccs2)C[C@@H]1C
→ nt | nt | -0.1 | 2.7 | -0.8
> CC(C)NC(=O)N(C)C[C@@H]1Oc2ccc(NC(=O)Cn3cnnn3)cc2C(=O)N([C@@H](C)CO)C[C@H]1C
→ nt | nt | 6.9 | 12.6 | -1.5
> CN(C)C(=O)C[C@H]1CC[C@@H]2[C@H](COC[C@H](O)CN2C(=O)C2CCCC2)O1
→ nt | nt | 3.9 | 0.6 | 2.3
> C[C@@H]1CN([C@H](C)CO)C(=O)c2cc(NS(=O)(=O)c3ccccc3)ccc2O[C@@H]1CN(C)S(=O)(=O)c1ccc(Cl)cc1
→ nt | nt | -3.0 | -11.9 | 4.3
> CC(C)CC#Cc1ccc([C@H]2[C@H](CO)N3C(=O)CN(S(C)(=O)=O)C[C@@H]23)cc1
→ nt | nt | 5.1 | 3.0 | -6.9
> COc1ccc(S(=O)(=O)Nc2ccc3c(c2)C(=O)N([C@H](C)CO)C[C@H](C)[C@H](CN(C)S(=O)(=O)c2ccc(OC)cc2)OCCCC[C@@H](C)O3)cc1
→ nt | nt | 0.9 | 3.0 | 1.1
> Cc1noc(C)c1S(=O)(=O)Nc1ccc2c(c1)C(=O)N([C@@H](C)CO)C[C@H](C)[C@H](CN(C)C(=O)CCCN(C)C)OCCCC[C@H](C)O2
→ nt | nt | 3.1 | -0.8 | -0.8
> CNC[C@H]1Oc2ncc(-c3cccc(C(=O)N(C)C)c3)cc2C(=O)N([C@H](C)CO)C[C@@H]1C
→ nt | nt | 4.6 | 11.4 | -6.0
> O=C([C@@H]1[C@@H](CO)[C@@H]2Cn3c(ccc(/C=C/c4ccccc4)c3=O)[C@@H]2N1CC1CC1)N1CCOCC1
→ nt | nt | 2.5 | -6.3 | 0.7
> O=C(N[C@H](C(=O)N1CCC[C@H]1C(=O)NC1CCCC1)c1ccccc1)c1ccc(Cl)c(Cl)c1
→ nt | nt | -25.9 | -59.6 | -5.8
> CO[C@H]1CN(C)C(=O)c2cc(NC(=O)C3CC3)ccc2OC[C@@H](C)N(C(=O)C2CCOCC2)C[C@H]1C
→ nt | nt | 0.1 | 5.0 | -3.2
> CC(=O)N1c2ccccc2N=C(c2ccc(C(F)(F)F)cc2)C1C(=O)NC(C)C (configuration not stated)
→ nt | nt | -1.4 | 9.6 | -0.4
> COc1ccc(S(=O)(=O)Nc2ccc3c(c2)C(=O)N([C@@H](C)CO)C[C@H](C)[C@@H](CN(C)C(=O)Nc2ccccc2)OCCCC[C@H](C)O3)cc1
→ nt | nt | -5.6 | -2.9 | -0.6
> O=C(C[C@@H]1CC[C@@H]2[C@H](COC[C@H](O)CN2Cc2ccc3c(c2)OCO3)O1)N1CCCCC1
→ nt | nt | -0.4 | -9.4 | 1.9
> CNC[C@H]1Oc2ccc(NC(=O)Nc3c(C)noc3C)cc2CC(=O)N([C@@H](C)CO)C[C@@H]1C
→ nt | nt | 3.3 | 4.1 | 0.1
> CC(C)C[C@H](NS(=O)(=O)c1ccc(F)cc1F)C(=O)N1CCC[C@H]1C(=O)NCc1ccccc1
→ nt | nt | -4.5 | 6.0 | 3.4

These rows are one share of the data; count on the stated rates, not on these rows.
